Screening results deposited in PubChem BioAssay by National Center for Advancing Translational Sciences (NCATS).
AID923: qHTS Assay for Allosteric/Competitive Inhibitors of Caspase-1: Spectroscopic Profiling in AFC Spectral Region; Potency, µM (series often up to 57.5 µM), for inactives: at the highest dose fluorescence increase, most hits filed as activators; compound fluorescence, AFC spectral region (405/520 nm); almost no hit is shown here; 75,000 tested, 1.1% active; active = well fitted activation curve with a large enough effect; inconclusive = small, poorly fitted or top-dose-only effect;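 also: potency is read from the fitted curve at half-maximal effect; 0% is about no effect; scaled to a free AFC standard on each plate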
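Compound autofluorescence profiled at 405 nm ex/520 nm em during kinetic caspase 1 run (50 nM enzyme, 5 uM Ac-WEHD-AFC, HEPES pH 7.5, 10 mM DTT). Titration up to 57 uM; baseline from regression intercept, normalized to AFC standard curve.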
A647 autofl: compound autofluorescence in A647 spectral region | Compound fluorescence, A647 channel (570/671 nm), Tris buffer | 59,000 tested, under 10 active | max dye-equivalent concentration, M | AID 592; active means above 1 µM dye equivalent; inconclusive means 0.1 to 1 µM; inactive means 0.1 µM or less;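 also: values scaled relative to a standard on each plate; highest value over a series up to 38 µM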
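Fluorescence read (570 nm ex, 671 nm em) after 15 min RT incubation of compounds in 100 mM Tris buffer, pH 8.0; values expressed as dye-equivalent concentration against a six-point A647 standard series on each plate.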
Resorufin autofl: resorufin region autofluorescence; Compound fluorescence, resorufin region 547/598 nm, buffer; stronger effect = higher value; max dye-equivalent concentration, M; 59,000 tested, 0.04% active; AID 588; active = above 10 nM dye equivalent; inconclusive = 1 to 10 nM; inactive = 1 nM or less; a few of its hits are not listed in these tables; also: highest value over a series up to 38 µM
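Dye-equivalent concentration values derive from comparing each well's 547/598 nm fluorescence against resorufin standards included on every plate. Incubation was 15 min at room temperature in 100 mM Tris, pH 8.0.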
TSHR agonist: TSH receptor (human) agonism. Potency, µM (doses to about 57.1 µM), for inactives: at the highest dose activation, hits mostly activators. HEK293-CNG-TSHR cells (CNG channel as cAMP sensor), membrane potential dye, cAMP. P16473. 73,000 tested, 0.48% active; active = well fitted activation curve of enough size with the parental cells flat; inconclusive = any curve in the parental cells; inactive = parental cells flat and receptor cells flat or falling; also: potency is read from the fitted curve at half-maximal effect; % of control where 0% means no effect; weak receptor curves with flat parental cells got no call and are not listed
Target sequence (P16473 whole entry, looked up): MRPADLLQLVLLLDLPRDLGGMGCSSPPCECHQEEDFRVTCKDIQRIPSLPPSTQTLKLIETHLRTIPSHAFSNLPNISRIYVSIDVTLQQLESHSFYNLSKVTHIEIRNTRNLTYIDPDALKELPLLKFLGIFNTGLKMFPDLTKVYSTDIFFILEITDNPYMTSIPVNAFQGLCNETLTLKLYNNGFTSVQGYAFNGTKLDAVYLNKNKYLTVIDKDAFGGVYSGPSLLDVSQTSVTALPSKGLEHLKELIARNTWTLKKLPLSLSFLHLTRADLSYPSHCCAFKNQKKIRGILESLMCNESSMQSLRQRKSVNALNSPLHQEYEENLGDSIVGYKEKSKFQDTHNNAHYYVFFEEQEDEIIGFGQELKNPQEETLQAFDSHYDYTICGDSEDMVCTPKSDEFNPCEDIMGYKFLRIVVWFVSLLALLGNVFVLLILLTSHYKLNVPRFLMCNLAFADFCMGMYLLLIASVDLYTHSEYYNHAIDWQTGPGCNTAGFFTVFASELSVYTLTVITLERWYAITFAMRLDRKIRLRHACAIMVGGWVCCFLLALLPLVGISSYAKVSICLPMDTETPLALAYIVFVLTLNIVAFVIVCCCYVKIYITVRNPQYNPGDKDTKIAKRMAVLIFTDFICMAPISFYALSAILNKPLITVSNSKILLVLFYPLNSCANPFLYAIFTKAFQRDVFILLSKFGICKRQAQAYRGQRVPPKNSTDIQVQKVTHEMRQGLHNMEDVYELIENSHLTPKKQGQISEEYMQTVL
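cAMP rise detected as CNG-channel membrane depolarization by fluorescent dye (emission 590 nm), 30 min after compound, following 60 min dye loading containing 100 uM RO 20-1724 at room temperature. Cells: TSHR/CNG HEK 293, with parental CNG HEK 293 as control.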
A488 fluor: A488 region autofluorescence; compound autofluorescence, A488 spectral region, dye equivalency; stronger effect = higher value; max dye equivalency, M; 59,000 tested, 0.1% active; AID 591; active = above 10 nM dye equivalent; inconclusive = 1 to 10 nM; inactive = 1 nM or less; about half of its hits are not listed in these tables;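 also: highest value over a series up to 38 µM; compound alone in buffer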
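Spectroscopic profiling in the A488 region: compounds in pH 8.0 Tris (100 mM), 15 min RT, CCD imaging with 480 nm excitation and 540 nm emission; responses normalized against A488 dye standards.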
* hit, by the source's call; i = inactive; ? = inconclusive; . = not tested or not shown; [ ] = remark or other dose.

Results follow in this order: AID923 | A647 autofl | Resorufin autofl | TSHR agonist | A488 fluor
Cc1ncc(CO)c(CN)c1O
 : 3.3%[11.5 µM] | 1e-09 | i | -1%[11.4 µM] | i
CCOC(=O)c1ccc2c(c1)C(=O)N(C1CCCCC1)C2=O
 : -1.6% | . | . | 3% | .
Cc1onc(-c2ccccc2Cl)c1C(=O)Nc1nnc(-c2ccc(F)cc2)s1
 : -3.4% | . | . | -7% | .
CCOc1ccc(NC(=O)c2cccc(-n3cnnn3)c2)cc1
 : 0.7% | 3.4e-08 | i | -2% | i
COc1cc(NC(=O)c2cccc(Cl)c2)c(OC)cc1NC(=O)CN1CCOCC1
 : -2.5% | 1e-09 | i | 5% | i
Cc1cnc(CNc2ncncc2-c2ccc3c(c2)OCO3)cn1
 : 1.4% | 2.3e-08 | i | 7% | i
O=C(NCc1ccc2c(c1)OCO2)c1cc(S(=O)(=O)N2CCCCC2)ccc1F
 : -0.4% | 1e-09 | i | ? | i
CN1C2C=C3C(C#N)=C(N)C(C#N)(C#N)[C@@H](c4ccc(Cl)cc4)[C@@H]3C1CC2 (stereo partly drawn)
 : . | 2.7e-09 | i | . | i
OCC(CO)(CBr)CBr
 : -2.1% | . | . | ? | .
CC(C)c1ccc(-c2nn[nH]n2)cc1
 : -0.8% | 3.3e-09 | i | 24% | i
Oc1c(CN2CCN(c3ccccn3)CC2)cc(Cl)c2cccnc12
 : -1.7% | 4.7e-08 | i | 23% | i
CN(c1nc(-c2ccccc2)cs1)C1CCS(=O)(=O)C1 (stereo not drawn)
 : 0.9% | 1e-09 | i | 8% | i
Cc1cc(=O)oc2cc(OCc3ccc(S(=O)(=O)N4CCOCC4)cc3)ccc12
 : 2.0% | 1e-09 | i | 8% | i
NS(=O)(=O)c1ccc(NC2(C(=O)O)CCCC2)cc1
 : 3.4%[11.5 µM] | 1.4e-08 | i | 0%[11.4 µM] | i
COc1ccc2oc(=O)c(C(=O)N3CCN(c4ccccc4C)CC3)cc2c1
 : 3.0% | 1e-09 | i | 16% | i
O=C(NCC(=O)N(CC1CCCO1)C(C(=O)NC1CCCC1)c1cccnc1)c1ccco1 (stereo not drawn)
 : -0.8% | 1.2e-08 | i | -2% | i
COC(=O)CSc1nnc(CNC(=O)c2ccc(OC)cc2OC)n1C
 : -1.1% | 4e-08 | i | -3% | i
Cc1ccc(CNc2ncnc3c2cnn3-c2ccccc2)cc1
 : -1.6% | . | . | 29% | .
C=CC(=O)c1ccc2ccccc2c1
 : -2.9% | . | . | 1% | .
CC(C)Cn1c2c(c(O)c(C(=O)Nc3ccc(F)cc3)c1=O)CCCC2
 : 0.0% | 1.7e-09 | i | 10% | i
CCc1ccc(NC(=O)c2cc(-c3ccco3)on2)cc1
 : -0.8% | 6.3e-09 | i | -7% | i
C=CCn1c(SCC(=O)/C(C#N)=C(\C)N)nnc1C1CCCCC1
 : 0.6% | 1.9e-08 | i | 1% | i
N[C@@H](CC1=CS(=O)(=O)c2ccc(Cl)cc21)C(=O)O
 : -0.6%[11.5 µM] | 4.4e-08 | i | 3%[11.4 µM] | i
Cc1[nH]c2ccccc2c1C1(O)C(=O)N(Cc2ccc3c(c2)OCO3)c2ccccc21 (stereo not drawn)
 : 3.5% | 7.9e-09 | i | -3% | i
CC1CCN(CCc2nc3cc(NS(=O)(=O)c4ccccc4)ccc3n2C)CC1
 : -0.6% | 2.7e-09 | i | 4% | i
CCC1C(=O)N=C(SCC(=O)Nc2ccc(C(=O)OC)cc2)NC1=O (stereo not drawn)
 : -2.3% | 4.1e-09 | i | -3% | i
CN1C(=O)c2ccc(C(=O)NCc3ccccc3)cc2C1=O
 : -0.4% | 2.8e-09 | i | -3% | i
Cc1ccc2nc(NC(=O)C3CCCN(S(=O)(=O)c4cccnc4)C3)sc2c1 (stereo not drawn)
 : -2.1% | . | . | -14% | .
c1ccc2c(c1)[nH]c1nc3nncn3nc12
 : 1.5% | . | . | -2% | .
Cc1cc(C(=O)CSc2nnc(Nc3ccccc3)s2)c(C)n1CC1CCCO1 (stereo not drawn)
 : -1.4% | 1e-09 | i | . | i

Next results follow:
Results follow in this order: AID923 | A647 autofl | Resorufin autofl | TSHR agonist | A488 fluor
COc1cccc(OCC(=O)Nc2ccc(OC)c(OC)c2)c1
 : -1.8% | 1e-09 | i | -2% | i
NC(=O)CSc1nnc2sc3ccccc3n12
 : 0.4% | 3.3e-09 | i | 0% | i
COCCn1c(=S)[nH]c2cc(C(=O)N3CCN(c4ccc(F)cc4)CC3)ccc2c1=O
 : -2.3% | 3.6e-09 | i | -5% | i
O=c1c(-c2ccc(F)cc2)nc2cnc(Oc3ccccc3)nc2n1C1CC1
 : 12% | 2.1e-09 | i | ? | i
OC(c1ccccc1)c1nc2ccccc2s1 (stereo not drawn)
 : 0.9% | . | . | 15%[11.4 µM] | .
COc1ccc(S(=O)(=O)N(C)CC(=O)Nc2cccc(C(C)=O)c2)cc1
 : -1.8% | 6.2e-09 | i | 1% | i
CCC1(C)CC(=O)N(c2ccc(C(=O)O)c(O)c2)C1=O (stereo not drawn)
 : 0.1% | 5.1e-09 | i | ? | i
Cc1cc(C)n2nc(SCC(=O)Nc3c(C)nn(-c4ccccc4)c3C)nc2n1
 : -0.3% | 2.2e-08 | i | 1% | i
COc1ccc(-n2ncc3c(=O)n(CC(=O)OCc4ccccc4)cnc32)cc1
 : -1.6% | 1e-09 | i | 3%[11.4 µM] | i
COC(=O)NC(/C(C(=O)OC)=C(\C)NCc1ccccc1)c1cccs1 (stereo not drawn)
 : -1.1%[11.5 µM] | . | . | ? | .
CC(=O)c1cccc(NC(=O)Nc2c(C)nn(C)c2C)c1
 : 0.8% | 8.3e-09 | i | -8% | i
c1coc(Cn2nnnc2CN2CCN(C3CCCC3)CC2)c1
 : 0.6% | 3.1e-08 | i | ? | i
COc1ccc(CCNC(=O)C2CCC(CNc3c(N4CCCC4)c(=O)c3=O)CC2)cc1OC (stereo not drawn)
 : -1.8% | . | . | -7% | .
CCOc1cccc(OCCCCn2ccnc2)c1
 : -0.9% | . | . | 12% | .
CCOc1ccc(C2=[N+]([O-])C(C)(C)N(O)C2(C)C)cc1
 : 0.8% | 3.3e-08 | i | 0% | i
CCCc1cc(C(=O)Nc2ccccc2SC)no1
 : 2.9% | . | . | 24% | .
CC(Sc1ncc(C#N)c(N)n1)C(=O)Nc1ccccc1 (stereo not drawn)
 : 0.2% | 1e-09 | i | ? | i
Cc1cccc(OCC(=O)NCCN2CCOCC2)c1
 : -0.1% | 1e-09 | i | -3% | i
C[C@@H]1C[C@H]2[C@@H]3C[C@H](F)C4=CC(=O)C=C[C@]4(C)[C@@]3(F)[C@@H](O)C[C@]2(C)[C@@]1(O)C(=O)CO
 : . | 7e-09 | i | . | i
COc1cccc(C2(O)CCN(C(=O)C3CCC3)CC2)c1
 : -0.7% | 1e-09 | i | 8% | i
CC(=O)N1CC=CC1(C)C(=O)O (stereo not drawn)
 : -1.0% | . | . | -1% | .
COc1ccc(NC(=O)COc2nsnc2N2CCCCC2)cc1
 : 1.2% | 1e-09 | i | -13% | i
COc1ccc(-n2nnc3c(SCC(=O)N4CCCc5ccccc54)ncnc32)cc1
 : 0.1% | . | . | 0% | .
CC(=O)O[C@]1(C(C)=O)CC[C@H]2[C@@H]3C[C@H](C)C4=CC(=O)CC[C@]4(C)[C@H]3CC[C@@]21C
 : 3.0% | 3.4e-08 | i | 6% | i
CCc1nn(C(C)C(=O)N2CCc3ccccc3C2)c(=O)c2cc3occc3n12 (stereo not drawn)
 : 2.9% | . | . | 16% | .
O=C(NCCN1CCOCC1)c1csc2c1CCCC2
 : 0.1% | 1.4e-08 | i | 6%[11.4 µM] | i
Cn1cccc1C(=O)N1CCN(c2cccc(C(F)(F)F)c2)CC1
 : -2.2% | 6e-09 | i | 2% | i
Cc1cccc(Cn2c(=O)n(CCCC(=O)NCc3ccco3)c(=O)c3ccccc32)c1
 : 0.0% | 3.3e-08 | i | ? | i
CCn1c(SCC(=O)Nc2c(C)n(C)n(-c3ccccc3)c2=O)nnc1-c1cccc(C)c1
 : -1.5% | 4.3e-09 | i | -11% | i
Nc1nc(SCC(=O)N2CCc3ccccc32)[nH]c(=O)c1-c1ccccc1
 : 2.3% | 3e-09 | i | ? | i

Some entries already given with just A488 fluor and A647 autofl.
structure	A488 fluor	A647 autofl
CC(Sc1ncc(C#N)c(N)n1)C(=O)Nc1ccccc1 (stereo not drawn)	i	1e-09
Cc1cccc(OCC(=O)NCCN2CCOCC2)c1	i	1e-09
C[C@@H]1C[C@H]2[C@@H]3C[C@H](F)C4=CC(=O)C=C[C@]4(C)[C@@]3(F)[C@@H](O)C[C@]2(C)[C@@]1(O)C(=O)CO	i	7e-09

Next section.
Results follow in this order: AID923 | A647 autofl | Resorufin autofl | TSHR agonist | A488 fluor
CCC(C(=O)Nc1ccccc1OC)n1c(C(=O)OC)cc2ccsc21 (stereo not drawn)
 : 0.0% | 2.7e-08 | i | ? | i
CCN(CC)c1ccc(NC(=O)CN2CCN(c3ccccc3F)CC2)cc1
 : 0.0% | . | . | 16% | .
CCCCn1nnnc1NCc1cccc(OC)c1OC
 : -0.5% | 2.7e-08 | i | 5% | i
CCn1ncc(C2=NOC(C(=O)NCc3ccc(OC)cc3)C2)c1C (stereo not drawn)
 : 1.5% | . | . | ? | .
COc1ccc(NC(=O)CSc2nnc(-c3ccccc3)n2N)cc1
 : -0.1% | 2.6e-08 | i | 1% | i
N[C@@H](Cc1cc(-c2ccc(Cl)cc2Cl)cc(CP(=O)(O)O)c1O)C(=O)O
 : -3.3% | . | . | ? | .
Cc1[nH]c(=O)[nH]c(=O)c1S(=O)(=O)N1CCCC(C(=O)NCc2ccco2)C1 (stereo not drawn)
 : 0.1% | 3.9e-08 | i | 10%[11.4 µM] | i
CC(C)COC(=O)COc1cc(Cl)c(Cl)cc1Cl
 : -0.7% | . | . | ? | .
COCC(=O)N1CCC2(CC1)CCN(c1ccccn1)CC2
 : 1.5% | 2.6e-09 | i | 22% | i
CS(=O)(=O)Nc1cccc(-c2nc(NCc3cccs3)c3ccccc3n2)c1
 : -2.0% | 4.7e-09 | i | ? | i
COc1cc(C(=O)O)ccc1OCC(=O)N1CCOCC1
 : -0.7% | 9e-09 | i | -2% | i
CC(C)=CCC/C(C)=C/CO/N=C1/C[C@@H](O)[C@@H](O)[C@@H]2[C@@H]3C(=O)N(C(C)(C)C)C(=O)[C@H]3CC[C@@H]12
 : -3.0%[11.5 µM] | . | . | -9%[11.4 µM] | .
COc1ccc(S(=O)(=O)Nc2ccc3oc(C)c(C(=O)O)c3c2)cc1
 : 1.7% | . | . | 4% | .
COCCCNC(=O)CC1Oc2ccccc2NC1=O (stereo not drawn)
 : -1.2% | . | . | ? | .
Cc1ccc(NC(=O)c2cnn(-c3ccccc3)c2NC(=O)c2ccco2)cc1C
 : -2.6% | 2.5e-08 | i | 6% | i
O=C(O)C1CC=CCC1C(=O)NCc1cn2ccccc2n1 (stereo not drawn)
 : 4.5% | . | . | -3% | .
COC(=O)c1ccc(Oc2cc(C)nc(NCc3ccccc3)n2)cc1
 : 0.6% | 4.6e-09 | i | 13% | i
COc1ccccc1OCc1nc(C#N)c(N2CCC(C(N)=O)CC2)o1
 : -0.9% | 1e-09 | i | -9% | i
CC(C)n1c(C(=O)OCC(=O)NCc2ccc3c(c2)OCO3)cc2sccc21
 : -1.2% | 6.5e-08 | i | ? | i
O=C1CCCCCN1C(=O)c1ccc(C(=O)N2CCCCCC2=O)cc1
 : -0.9% | 7.8e-09 | i | -6% | i

These rows are one share of the data; the hit share may differ from the screen's.
